Menin-MLL FL inh: displaces fluorescein MLL peptide from human menin. Fluorescence polarization, fluorescein-MLL peptide displacement from menin. FP activity change, % at 61.4 µM. 290,000 tested, under 10 active; inconclusive = falling polarisation curve, or a change in total fluorescence; inactive = total fluorescence flat and polarisation flat or rising; no compound was filed as active; the % refers to the polarisation; negative = inhibition;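 further: % of control where 0% means no effect; inhibitors lower the polarisation; unlabelled MLL peptide was the positive control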
D2 PAM: human D2 receptor positive allosteric modulation | P14416 | DiscoveRx D2 beta-arrestin cells, luminescence, 90 min; 100% = 57 uM dopamine signal | potentiation, % (no concentration beside the values) | 360,000 compounds, 0.23% hits; active = potentiation of 50% or more; inconclusive = 30% to 50%; inactive = 30% or less;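 further: compound concentration not given in the record; tested on top of an EC20 dose of dopamine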
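PathHunter beta-arrestin assay in DiscoveRx D2 cells. Compounds were added with an EC20 of dopamine (50 nM final) for 90 min at 37 deg C. Luminescence was read 1 h after detection reagent, with 57 uM dopamine as the EC100 control.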
ClpP mod: qHTS Assay for Activators of ClpP; Potency, µM (series often up to 57.5 µM), for the others: at the highest dose activity change, negative = active; ATP-dependent Clp protease proteolytic subunit (Bacillus subtilis (strain 168)), P80244; purified B. subtilis ClpP, FRET peptide cleavage, 20 min; 340,000 compounds, 1.9% hits; active = well fitted falling curve with a large enough effect; inconclusive = small, poorly fitted or top-dose-only effect; inactive = no such curve, though single readings can be large or run the other way; further: potency means the concentration at half of the fitted maximal effect; the source files actives as falling curves though it sought activators and does not explain the sign; nearly all actives have a fitted effect of over 65% in size; many hits overshoot -100%
Target sequence (P80244 whole entry, looked up): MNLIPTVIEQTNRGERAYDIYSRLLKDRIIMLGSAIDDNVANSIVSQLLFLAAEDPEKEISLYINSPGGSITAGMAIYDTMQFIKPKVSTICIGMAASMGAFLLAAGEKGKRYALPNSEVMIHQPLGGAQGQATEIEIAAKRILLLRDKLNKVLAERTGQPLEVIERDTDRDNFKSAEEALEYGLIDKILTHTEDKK
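FRET quenching reversal measured ClpP activation: 10 microg/mL B. subtilis ClpP at pH 8 with the FRET-FV decapeptide, read at 430 nm after 320 nm excitation. The 20-min minus 0-min signal was scaled between DMSO/no-enzyme wells and ADEP (5.8 microM final).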
Sfp inh: Sfp phosphopantetheinyl transferase inhibition | Potency, µM, inactives show max response, negative = inhibition, most hits filed as inhibitors | 310,000 compounds, 3.5% hits | AID 1490 | Biochemical Sfp PPTase activity, qHTS | Q9F4F7; active means well fitted inhibition curve with a large enough effect; inconclusive means small, poorly fitted or top-dose-only effect, or another doubt; inactive means no such curve, though single readings can be large or run the other way;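 further: the enzyme is Sfp with the accession as filed and its product quenches rhodamine fluorescence; potency means the concentration at half of the fitted maximal effect; 0% = enzyme reaction without inhibitor and -100% = no enzyme wells; top concentration of the series not given in the record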
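Step 1, compound plus 15 nM Sfp-PPTase, 15 min, room temperature. Step 2, add rhodamine-CoA (5 uM) and BHQ-2-YbbR (12.5 uM). Step 3, read 525/598 nm fluorescence at 0 and 30 min.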
gsp ag: agonists of gsp mutant (McCune-Albright syndrome); gsp mutant cells, cAMP HTRF, 30 min; control for the full effect not named in the record; Potency, µM (series often up to 76.9 µM), for inactives: at the top dose activation (cAMP increase), most hits filed as activators; 340,000 compounds, 0.13% hits; AID 624287; active = well fitted activation curve with a large enough effect; inconclusive = small, poorly fitted or top-dose-only effect, or another doubt; inactive = no such curve, though single readings can be large or run the other way; cell line not stated here;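 further: phosphodiesterase inhibitor Ro 20-1724 added with compounds to block cAMP breakdown; potency means the concentration at half of the fitted maximal effect; nearly all actives have a fitted effect of over 60% in size; about a fifth of the inactives were tested at one dose only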
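Cells stably selected in G418 were plated at 2000/well, grown 16-24 hr, then given compounds in DMSO with the PDE inhibitor […] (300 uM solution added) for 30 min at 37C; cAMP was read by HTRF.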
gsp antag: antagonizes gsp, the McCune-Albright syndrome mutation. gsp-mutant cells, cAMP HTRF, 30 min; control for the full effect not named in the record. Potency, µM (highest dose often 76.9 µM), for the others: at the top dose activity change, negative = inhibition, hits mostly inhibitors. 340,000 compounds, 0.4% hits; active = falling curve of any shape with a large fitted effect; inconclusive = falling curve, mostly with a smaller effect; inactive = flat or rising curve; cell line not stated here;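 further: intracellular cAMP measured with PDE inhibitor Ro 20-1724 present during compound exposure; potency means the concentration at half of the fitted maximal effect; on the % scale 0 is the no-effect control and ±100 the full control effect; nearly all actives have a fitted effect of over 65% in size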
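HTRF cAMP measurement after 30 min RT detection following 30 min, 37C compound treatment alongside […] (added as 300 uM solution) in G418-selected cells seeded at 2000/well and grown 16–24 h.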
TRPV1 potentiator: potentiators of human vanilloid receptor 1 (TRPV1). TRPV1-expressing cells, Fluo-8 calcium influx, capsaicin EC20 potentiation; host cell line not named in the record; control for the full effect not named in the record. potentiation, % at 8.33 µM. 320,000 compounds, 0.02% hits. Q8NER1. AID 540277; active means potentiation above 80%; inconclusive means 30% to 80%; inactive means below 30%; further: 0% is about no effect
Target sequence (Q8NER1 whole entry, looked up): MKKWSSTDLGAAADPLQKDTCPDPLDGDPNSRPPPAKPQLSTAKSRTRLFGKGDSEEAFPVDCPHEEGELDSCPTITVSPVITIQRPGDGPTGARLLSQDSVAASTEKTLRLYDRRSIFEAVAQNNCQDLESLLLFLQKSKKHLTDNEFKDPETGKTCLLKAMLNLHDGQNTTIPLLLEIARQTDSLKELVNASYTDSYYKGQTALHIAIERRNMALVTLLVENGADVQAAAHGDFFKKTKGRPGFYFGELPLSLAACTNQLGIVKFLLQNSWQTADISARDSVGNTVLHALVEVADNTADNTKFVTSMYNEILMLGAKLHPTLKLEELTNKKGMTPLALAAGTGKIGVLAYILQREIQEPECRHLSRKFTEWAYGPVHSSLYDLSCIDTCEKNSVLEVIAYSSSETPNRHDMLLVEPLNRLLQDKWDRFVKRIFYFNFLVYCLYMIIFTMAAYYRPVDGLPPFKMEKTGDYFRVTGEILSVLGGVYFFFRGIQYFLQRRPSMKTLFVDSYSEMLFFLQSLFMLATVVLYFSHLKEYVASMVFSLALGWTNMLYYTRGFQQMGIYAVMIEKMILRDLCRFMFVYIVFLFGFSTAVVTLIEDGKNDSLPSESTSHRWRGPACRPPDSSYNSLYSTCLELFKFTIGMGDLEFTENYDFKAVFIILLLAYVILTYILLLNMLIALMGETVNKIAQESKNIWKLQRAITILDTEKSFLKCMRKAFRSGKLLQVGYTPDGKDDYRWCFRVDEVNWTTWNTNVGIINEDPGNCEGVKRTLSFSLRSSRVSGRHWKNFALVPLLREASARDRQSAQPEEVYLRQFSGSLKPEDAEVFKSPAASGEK
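TRPV1-expressing cells were cultured overnight at 35.5C and loaded with Fluo-8 calcium dye for 40 to 90 min at room temperature. After a 10 s baseline, compound was added and calcium influx was read kinetically for 3 min (ex 480/em 520 nm).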
The depositor's hits bear a star; ? = inconclusive; nt = not tested or not shown; & = joins results of further samples; [ ] = dose if it differs, or a comment.

SMILES | Menin-MLL FL inh | D2 PAM | ClpP mod | Sfp inh | gsp ag | gsp antag | TRPV1 potentiator
CC1(C)Cc2ccccc2-c2nnc(-c3ccc(O)cc3)n21 | -0.5 | -7.9 | 1.7% | 19.3% | -14.4%[15.4 µM] | -53.7% | 1.3
COC(=O)c1ccc(COc2ccc(-c3nn[nH]n3)cc2)cc1 | 6.3 | 7.1 | -4.0% | -1.1% | 3.8% | -27.8% | 0.4
CCOCCCNC(=O)Cc1ccc(OC)c(OC)c1 | 3.3 | 12.7 | 0.3% | 23.4% | 3.4% | -5.4% | 1.3
COc1ccc(C(=O)NCCS(=O)(=O)NCc2ccccc2)cc1 | nt | -17.6 | 1.0% | nt | -15.8% | 2.9% | 2.2
Cc1ccc(C(C)NC(=O)Cc2cccs2)cc1C (stereo not given) | nt | -7.8 | 1.1% | 12.1% | ? | 9.7% | -13.3
CCOC(=O)CSc1ncnc2c1sc1nc(N3CCOCC3)c3c(c12)CCCC3 | 0.9 | 1.8 | ? | 0.3% | -3.8% | 6.1% | -3.4
COc1cc(/C=C2\C(=O)ON=C2c2ccccc2)cc(Br)c1O | ? | -5.9 | nt | ? | ? | -31.0% | 14.1
Cc1ccc(C)c(NC(=O)COC(=O)CNC(=O)c2ccccc2Cl)c1 | -1.8 | -0.1 | nt | 18.8% | -6.3%[15.4 µM] | 0.8% | 4.2
Cn1nnnc1SCCNCc1ccccc1OCc1ccc(Cl)cc1 | -1.7 | -19.9 | -0.3% | -12.5% | 34.1%[15.4 µM] | -10.2% | -28.2
COCCCNC(=O)/C=C/c1ccc(Cl)cc1 | -1.5 | -18.7 | -18.5% | 3.0% | -43.6%[inhibitor] | 0.6% | 6.2
CCN(c1ccccc1)S(=O)(=O)c1cc(C(=O)Nc2ccc(F)c(F)c2)ccc1F | 0.6 | -0.1 | -3.1% | 16.6% | -39.1%[inhibitor] | ? | -7.5
CC1=C(C(N)=O)C(c2ccc(C)o2)C(C(N)=O)=C(C)N1 | -14.0 | -2.5 | -1.9% | 4.5% | 4.6% | 14.1% | -18.4
COc1ccc(COc2cc(-c3cccc(OC)c3)nc3ccc(NC(=O)c4ccc(N(C)C)cc4)cc23)cc1 | -0.2&-3.9 | -7.0 | 3.4% | -1.4%&7.0% | nt | 11.2% | -0.4
CCN(CC)C(=O)CN1C(=O)C2(OCC(C)(C)CO2)c2ccccc21 | nt | 8.5 | -1.3% | nt | 19.4% | 5.3% | -4.1
O=C(O)C[C@H]1c2cc(F)ccc2S(=O)(=O)N1C1CCCC1 | nt | -1.3 | -1.6%&-0.3% | nt | ? | 8.1% | nt
Cc1cc(-c2n[nH]c(=S)o2)c(C)n1-c1ccccc1 | 3.1 | -15.7 | -6.8% | 6.3% | -0.3% | -12.3% | 4.9
CCSc1nnc(CCNC(=O)OC(C)(C)C)o1 | 2.1 | -9.1 | -0.7% | 23.7% | -24.7% | 9.8% | -3.2
COc1ccc(S(=O)(=O)c2cnc3ccccc3n2)cc1 | 0.0 | -3.7 | nt | 0.1% | -11.2% | 4.0% | -2.5
O=C(COC(=O)C1CCN(c2ccc(C(F)(F)F)cn2)CC1)c1ccc(Cl)cc1 | nt | 1.3 | -5.4% | nt | 11.7%[15.4 µM] | -8.8% | -13.6
Cn1ccnc1C(O)c1cc(C(C)(C)C)c(O)c(C(C)(C)C)c1 (stereo not given) | 0.5 | -14.2 | 1.1% | 44.7µM* | -11.8% | -16.3% | -2.0
C/C(=N\NC(=O)CSCc1ccc(Cl)cc1)c1ccc2c(c1)OCCO2 | 2.1 | -11.5 | -3.2% | -2.0% | 8.8% | ? | 19.7
O=C(NNC(=O)c1ccc(Cl)cc1Cl)c1cnccn1 | 0.7 | 4.3 | -0.9% | ? | 21.4% | 0.6% | 10.9
C=CCn1c(COc2ccccc2)nnc1SCC(=O)O | 3.6 | -23.6 | 0.7% | 18.3% | -22.1% | 5.4% | 0.5
CC(=O)Nc1ccc(S(=O)(=O)NCC(=O)OCC(=O)NNC(=O)c2ccccc2)cc1 | nt | -2.0 | 1.2% | nt | 19.1% | 14.7% | -12.1
CC(C)N1CCC(N2CCN(C/C=C/c3ccccc3)CC2CCO)CC1 (stereo not given) | -0.2 | -6.1 | nt | -1.6% | -19.0%[15.4 µM] | 10.2% | -3.6

Following part:
SMILES | Menin-MLL FL inh | D2 PAM | ClpP mod | Sfp inh | gsp ag | gsp antag | TRPV1 potentiator
CCOC(=O)N1CCN(C(=O)c2ccccc2N(Cc2ccccc2)S(=O)(=O)c2ccc(OC)cc2)CC1 | -2.5 | 7.5 | nt | 5.8% | -3.1%[15.4 µM] | nt | -25.5
CCCC1Cc2[nH]c(=O)c(C#N)cc2CO1 (stereo not given) | 0.3 | -0.4 | nt | 0.8% | 33.7%[15.4 µM] | 0.2% | -3.4
CC(=O)Nc1ccc([N+](=O)[O-])cn1 | -0.2 | -12.8 | 1.7% | 2.5% | ? | 2.7% | -3.9
Cc1cc(NC(=O)c2cc([N+](=O)[O-])cc([N+](=O)[O-])c2)n(-c2ccccc2)n1 | 1.8 | 19.2 | 0.6% | 6.5% | ? | -39.0% | -6.3
O=C(O)CNC(=O)c1cccc(C(F)(F)F)c1 | 2.6 | -9.2 | -2.4% | 4.0% | -45.3%[inhibitor] | -0.4% | ?
COc1ccc(C(=O)NCC(c2cccnc2)N2CCN(c3ccccc3)CC2)cc1OC (stereo not given) | 2.3 | -13.1 | -4.2% | 11.8% | -44.1%[inhibitor] | 6.9% | 13.9
Cc1nn(C(=O)c2ccoc2C)c(N)c1-c1ccccc1 | 11.8 | -0.9 | 0.2% | ? | -19.8% | -18.6% | -3.8
NS(=O)(=O)c1ccc(-c2ccc(/C=C3\C(=O)Nc4ccccc43)o2)cc1 | -12.8 | nt | nt | 12.4% | nt | nt | -1.9
CNC(=O)CCSSCCC(=O)NC | 0.5 | -4.3 | nt | 10.7% | 9.0%[15.4 µM] | -5.3% | -4.3
COc1cc(C=NNc2ccccc2[N+](=O)[O-])cc(OC)c1OC | nt | -9.7 | -15.8% | nt | -24.5% | nt | nt
CCOc1ccc(CN(C)C(=O)c2ccc3c(c2)NC(=O)C(C)S3)cc1OC (stereo not given) | nt | 0.5 | -0.9% | nt | 17.5% | 6.5% | 12.0
C=CCC[C@@H](Cc1ccc(F)cc1)C(=O)OC[C@@H](NC(=O)[C@@H](CC=C)CC(=O)N(CCO)Cc1ccccc1)c1ccccc1 | nt | -3.1 | 2.0% | nt | 21.6% | -7.6% | nt
Cc1ccnc(NC(=O)CCC(=O)N(CC(=O)NCc2ccc(F)cc2)CC2CCCO2)c1 (stereo not given) | -2.5 | -2.7 | nt | -5.0% | -16.8% | 6.6% | 4.0
Cn1c(=O)c2c(nc(SCCNS(=O)(=O)c3ccccc3)n2C)n(C)c1=O | 1.8 | -1.9 | -0.7% | 3.9% | 0.0% | 8.7% | 2.8
Cc1cc(N2C(=O)c3ccc(C(=O)NCc4ccccc4)cc3C2=O)no1 | 4.1 | -13.5 | -0.4% | -3.0% | 10.2% | -5.2% | 0.7
CSc1nnc(C)c(=O)n1COC(=O)COc1ccc(Cl)cc1Cl | 0.0 | -7.0 | 0.5% | 12.4% | 4.1% | -0.2% | 4.8
O=C(NC1CCCCCCC1)c1ccc2c(c1)OCO2 | -0.3 | -6.0 | -1.4% | 15.6% | 14.8% | -23.0% | -5.9
N#CCCn1c(SCC(=O)Nc2ccc(N3CCOCC3)cc2)nc2ccccc21 | 5.3 | -7.4 | 0.6% | -11.5% | 0.0% | -10.9% | -3.3
N#Cc1ccc(S(=O)(=O)NCC(=O)OCC(=O)NCCc2ccccc2)cc1 | nt | -9.6 | -1.4% | 8.5% | -12.0% | -14.9% | 6.3
Cc1c(C(=O)c2ccc(F)cc2F)c2ccccn2c1CCC#N | -18.3 | -8.8 | nt | ? | -0.1%[15.4 µM] | -1.0% | 26.5
CCCCN(CCCC)S(=O)(=O)c1ccc(NC(=O)CN2CCOCC2)cc1 | -0.7 | 1.7 | 0.5% | -4.4% | 24.0% | 2.7% | 7.3
COc1ccc(/C=N/NC(=O)CNC(=O)c2cccs2)cc1 | 3.6 | -4.1 | 0.4% | 8.8% | 11.7% | 3.5% | 4.1
CC(=O)N(c1cccc(C(F)(F)F)c1)c1nc(/C=C/C(=O)O)cs1 | 4.1 | -0.7 | -2.2% | 1.5% | 4.8% | -8.0% | 0.8
C/C(=N\OC(=O)c1c(-c2c(F)cccc2Cl)noc1C)c1nccs1 | 0.4 | 1.2 | nt | 3.1% | -1.9% | -4.3% | -3.7
CSC1=NCCN1C(=O)c1ccc2ccccc2c1 | 0.7 | -7.8 | -1.7% | 24.0% | 3.2% | 10.2% | 6.8

Next results:
SMILES | Menin-MLL FL inh | D2 PAM | ClpP mod | Sfp inh | gsp ag | gsp antag | TRPV1 potentiator
CN(c1ccccc1)S(=O)(=O)c1cccc(C(=O)Nc2ccc3c(c2)CCC3)c1 | -0.1 | -12.0 | 1.3% | 7.2% | -26.3% | -1.4% | 18.2
COc1ccc(N(C)C(=O)c2ccc3snnc3c2)cc1 | 1.6 | -0.5 | 1.3% | -13.2% | ? | 6.3% | 20.3
Cc1nn(Cc2ccc(C(=O)N3c4ccc(F)cc4CCC3C)o2)c(C)c1Br (stereo not given) | 1.9 | -0.3 | -1.8% | -21.5% | -53.2%[inhibitor] | -0.2% | -6.4
O=C1N=c2ccccc2=C1c1c(O)n(-c2cccc(F)c2)[nH]c1=O | 0.4 | 22.1 | 5.7% | 11.2µM* | 3.2%[15.4 µM] | 7.5% | 0.5
COC(=O)c1c(C)[nH]c(C(=O)OCc2csc(CC(=O)Nc3ccccc3C)n2)c1C | nt | -5.9 | 0.5% | nt | -2.9%[15.4 µM] | -4.6% | nt
O=C(/C=C/c1ccco1)Nc1cccnc1Cl | ? | -12.0 | -0.3% | 50.1µM* | -21.7% | 4.7% | -16.5
CC(=O)N1CCN(C(=O)CCc2nc3sc4c(c3c(=O)[nH]2)CCCC4)CC1 | 2.2 | -15.9 | -21.8% | 14.4% | -7.1% | 7.1% | -2.0
CCn1cc(C(=O)N[C@@H](C)C(=O)OC)c(=O)c2cc3c(cc21)OCO3 | -9.1 | -2.7 | -18.9% | 2.1% | -3.8% | 0.9% | -18.8
COc1cc2c(cc1NC(=O)CSc1nnc(Cc3cccs3)n1Cc1ccco1)oc1ccccc12 | 0.4 | -13.4 | -4.2% | -19.9% | 16.5% | -14.2% | 5.7
Cc1c(Cl)cccc1NC(=O)CSCC(N)=O | 0.4 | -8.5 | -0.6% | 4.6% | -18.5% | -4.6% | -2.2

Screening data from PubChem BioAssay.
